Screening data deposited in PubChem by several laboratories.
ALR inh = blocks human ALR sulfhydryl oxidase activity; P55789; purified ALR, DTT oxidation, H2O2 HRP-luminol luminescence; inhibition, % (concentration not given with the values); 3.8% of 290,000 active;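 active = mean and each replicate at 75% or more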;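 note: stock transfer was 7.5 nL into about 7.5 µL; 0% = neutral wells and 100% = wells with inactivated enzyme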
Target sequence (P55789 whole entry, looked up): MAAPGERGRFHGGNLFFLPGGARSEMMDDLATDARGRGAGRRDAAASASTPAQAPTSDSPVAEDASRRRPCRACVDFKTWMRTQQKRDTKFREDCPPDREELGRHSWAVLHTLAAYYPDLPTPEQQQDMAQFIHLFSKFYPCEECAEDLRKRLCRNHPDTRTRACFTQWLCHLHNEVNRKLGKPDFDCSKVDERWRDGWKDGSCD
HNF4A DNA FP = change in binding of human HNF4 alpha to DNA. 0.3% of 360,000 active. activity change, % at 10 µM. P41235. HNF4a-FITC DNA binding, fluorescence polarization, 1 h; in the data active = activity change above about 30%, passing the limit was not always enough;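 note: controls were the assay level and a saturating level of protein; the project sought stronger binding though the title names inhibitors; some compounds called inactive have numbers as strong as hits; positive values seem to mean higher polarization but the record does not say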
Target sequence (P41235 whole entry, looked up): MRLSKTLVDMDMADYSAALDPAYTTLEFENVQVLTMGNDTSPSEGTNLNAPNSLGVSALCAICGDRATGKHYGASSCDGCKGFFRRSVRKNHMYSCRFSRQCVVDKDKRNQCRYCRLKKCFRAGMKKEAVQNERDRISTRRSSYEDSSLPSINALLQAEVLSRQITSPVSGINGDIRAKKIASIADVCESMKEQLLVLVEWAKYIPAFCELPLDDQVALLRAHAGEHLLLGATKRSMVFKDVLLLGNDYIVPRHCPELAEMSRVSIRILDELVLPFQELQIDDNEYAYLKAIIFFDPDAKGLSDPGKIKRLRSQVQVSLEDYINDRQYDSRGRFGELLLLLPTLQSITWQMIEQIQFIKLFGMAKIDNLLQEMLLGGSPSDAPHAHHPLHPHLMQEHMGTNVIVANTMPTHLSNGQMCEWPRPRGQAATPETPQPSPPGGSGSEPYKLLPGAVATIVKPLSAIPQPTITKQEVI
UCH37 DUB inh = blocks the human deubiquitinase UCH37 | inhibition, % (concentration not given with the values) | AID 588478 | 0.33% of 330,000 active | purified proteasome/UCH37, Ub-AMC cleavage fluorescence;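 active = mean of two replicates above 20%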;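 note: 0% = compound-free wells with enzyme and 100% = wells lacking proteasome; stock transfer was 100 nL into about 20 µL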
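Material: Human UCH37 enzyme supplied as purified proteasome complex | Schedule: 30 min preincubation with enzyme, 25 min cleavage at room temperature | Detection: AMC fluorescence 355/460 nm | Measure: % inhibition of Ub-AMC cleavage fluorescence | Controls: Wells without proteasome as full block, compound-free enzyme plus substrate as uninhibited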
Beta2AR agonist = activates human beta-2 adrenergic receptor causing internalization; response, % (concentration not given with the values); 0.43% of 340,000 active; P07550; Am2.2-beta2AR cells, FAP receptor internalization, flow cytometry; reference of the scale not given here;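 active = response above a set limit, near 3 SD of response in nonfluorescent compounds, cut at about 42% in these data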;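 note: stock transfer was 100 nL into about 11 µL; a reference agonist was the positive control; negative values mostly stem from fluorescent compounds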
FGF22 binding = FGF22 (human) thermal shift binding; 1.5% of 340,000 active; recombinant FGF22 thermal shift, SYPRO orange fluorescence; percent of sucrose octasulfate shift, DMSO zero; calls only at 9.99 µM; Q9HCT0; AID 651658;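 active = melting point raised past a set limit in the mean and every replicate; three in four hits are not shown here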
Target sequence (Q9HCT0 whole entry, looked up): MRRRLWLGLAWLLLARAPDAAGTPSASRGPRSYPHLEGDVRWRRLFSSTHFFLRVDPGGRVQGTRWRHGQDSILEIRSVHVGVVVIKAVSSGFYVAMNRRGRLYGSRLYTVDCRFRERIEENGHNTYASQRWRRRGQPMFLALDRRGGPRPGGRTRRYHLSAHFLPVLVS
rRNA inh HTS = inhibits bacterial ribosomal RNA function over humanized ribosomes; GFP signal change (wild-type ribosome), % (no concentration beside the values); E. coli WT GFP vs humanized-ribosome RFP mutants, fluorescence, 24 h; hits give low values; DMSO median 0, no signal -100; 1.6% of 350,000 active;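 active = significant combined selectivity score with lowered wild-type GFP, culture density cut under 30%, mutant RFP and density less affected; inactive = any of these conditions unmet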; note: one replicate is shown; some compounds called inactive have numbers as strong as hits
E coli growth = blocks Escherichia coli growth | 0.21% of 330,000 active | OD600 absorbance (test concentration not listed) | OD600, 23 h; hits give low values | AID 1053175;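 active = OD600 absorbance below the run mean of sample wells minus 3.6 SD, in any replicate, cut at about 0.56 in these data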;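 note: stock transfer was 300 nL into about 60 µL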
rRNA inh HTS OD600 = further read-out of rRNA inh HTS, marked with its call; OD600 change, %; measured here: OD600 growth;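 optical density of the mix in the first replicate; 0 = DMSO median and -100 = no signal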
rRNA inh HTS RFP = further read-out of rRNA inh HTS, marked with its call; RFP signal change, %; measured here: RFP humanized mutant strains;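 first replicate; 0 = DMSO median and -100 = no signal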
Numbers without * were called inactive; i = inactive; . = no result given.

SMILES	ALR inh	HNF4A DNA FP	UCH37 DUB inh	Beta2AR agonist	FGF22 binding	rRNA inh HTS	rRNA inh HTS OD600	rRNA inh HTS RFP	E coli growth
COC(=O)Cc1ccc(NC(=S)N2CCN(C(=O)C3CCCO3)CC2)cc1 (stereo unspecified)	6.9	2.4	-0.6	5.5	i	-0.8	7.2	-2.3	0.69
Cc1ccc(S(=O)(=O)N2CCN(c3cnn(-c4ccccc4)c(=O)c3Cl)CC2)cc1	0.4	4.4	2.4	-0.3	.	.	.	.	0.713
CCCN1CN(Cc2ccccc2)CC2=C1CC(C)(C)CC2=O	4.2	2.9	2.3	-0.2	.	.	.	.	0.676
CCOC(=O)C(NC(=O)N(C)C)(Nc1sc(C)c(CC)c1C#N)C(F)(F)F (stereo unspecified)	28.4	-2.5	0.5	-0.8	.	.	.	.	0.706
O=C(N/N=C/c1cn(-c2cccs2)nc1-c1ccccc1)c1ccccc1Cl	.	-2.1	.	2.9	i	.	.	.	.
Cc1ccc(NC(=O)COC(=O)CN2C(=O)C3CCCCC3C2=O)cc1C (stereo unspecified)	3.7	-0.9	0.7	-0.6	i	-4.3	12.2	-2.6	0.656
Cc1ccc(S(=O)(=O)N2CCCCC2)cc1C(=O)NCc1ccncc1	-5.8	5.5	2.0	-1.4	i	.	.	.	0.632
COC(=O)CNC(=O)CNC(=O)Nc1ccccc1Cl	3.7	-5.0	0.6	8.7	.	.	.	.	0.671
Cc1cc(C)c(C(=O)CSc2n[nH]c(-c3ccncc3)n2)c(C)c1	16.9	0.9	5.7	-5.0	i	-52.9	-55.5	-4.1	0.657
CC1=CC(C)(C)n2c(O)c(N=NC(N)=S)c3cc(C)cc1c32	25.4	-0.2	-1.0	-7.7	.	.	.	.	0.715
COc1cc(CNCCCN2CCOCC2)ccc1OCC(=O)Nc1cccc(C(F)(F)F)c1	-24.5	3.2	1.9	17.9	.	.	.	.	0.704
Cc1ccc(NC(=O)C2C3/C=C\CCCCC32)cc1 (stereo unspecified)	-4.3	3.1	1.3	-6.5	i	.	.	.	0.726
Cc1nc(N2CCCC2)c2nnn(Cc3ccccc3Cl)c2n1	-1.7	6.7	3.9	-14.1	.	.	.	.	0.72
CC(C)=CCC[C@H](C)C[C@@H]1Cc2[nH][nH]c(=O)c2[C@@H](c2ccc(F)cc2)O1	.	-1.4	.	.	i	-1.5	3.8	-5.1	.
CC(=O)N(c1cccc(C)c1)S(=O)(=O)c1ccc(Cl)cc1	9.0	-3.9	3.0	-0.4	i	1.4	-7.5	0.3	0.673
O=C(CCCc1ccccc1)NCc1cccnc1	-3.3	-1.7	2.4	-1.1	.	.	.	.	0.636
COc1ccc(Cl)cc1-c1nc(-c2ccc(Br)o2)no1	-4.5	-0.3	-1.5	-1.5	i	7.5	5.9	-0.1	0.714
CCOc1ccc(-c2c(C(=O)N/N=C(\C)c3ccccc3OC)nnn2-c2nonc2N)cc1	0.8	-1.2	.	4.2	i	4.2	7.2	2.6	.
CN1CCc2ccccc2Cc2[nH]c3ccccc3c2CC1	30.8	2.3	2.7	-11.4	i	17.0	8.9	6.2	0.68
O=C(c1cccs1)N1CCN=C1SCc1ccccc1	-7.2	0.0	-0.6	-5.0	.	.	.	.	0.687
COc1cc(C2C(C(=O)c3cccs3)=C(O)C(=O)N2CCN2CCOCC2)cc(OC)c1OC (stereo unspecified)	.	-0.1	2.1	1.3	i	9.7	6.3	-2.3	0.662
CC(C)OCCCNC(=O)c1ccncc1	-8.0	5.7	-3.0	-5.9	.	.	.	.	0.666
O=C(CN1C(=O)CCSc2ccc(S(=O)(=O)N3CCCC3)cc21)Nc1ccccc1	-8.7	-0.8	4.6	-1.5	i	7.9	23.3	0.7	0.674
CCOc1ccc(S(=O)(=O)Nc2cccc(C(=O)NCCCN3CCOCC3)c2)cc1	-5.1	-0.4	0.2	-3.6	i	17.2	6.6	3.2	0.696
Cc1cccc(-c2nc(CS(=O)CC(=O)NC3CCCC(C)C3C)c(C)o2)c1 (stereo unspecified)	99.2*	-1.6	-0.2	3.0	i	-4.0	-18.2	5.8	0.7
Next section.
SMILES	ALR inh	HNF4A DNA FP	UCH37 DUB inh	Beta2AR agonist	FGF22 binding	rRNA inh HTS	rRNA inh HTS OD600	rRNA inh HTS RFP	E coli growth
Cc1cc(C(=O)NC(C)C)on1	-2.3	-1.9	1.0	-3.2	.	.	.	.	0.714
COC(=O)[C@H]1[C@@H](C)N(Cc2ccccc2)C(=O)N[C@H]1c1cccc(C(F)(F)F)c1	4.9	2.1	0.6	5.1	i	-2.5	-7.4	-4.4	.
CCOc1ccc(N(Cc2ccc(OC)cc2)C(=O)c2ccco2)cc1	-1.0	-2.7	.	-7.5	i	-1.3	-8.9	-1.5	.
COc1ccccc1Nc1nc(N)nc(CN2CC(C)CC(C)C2)n1 (stereo unspecified)	-20.9	-0.6	5.3	-4.7	i	14.9	6.1	1.0	0.706
CS(=O)(=O)N(CC(=O)Nc1ccccc1Sc1ccccc1)C1CCCCC1	-7.9	0.5	-1.2	9.0	.	.	.	.	0.711
CCOC(=O)COc1cccc2c(=O)n(CC(=O)N3CCc4ccccc43)ccc12	-2.7	-1.1	-4.6	-0.3	i	5.3	17.1	-1.0	0.772
O=C(COC(=O)CCc1ccc(S(=O)(=O)N2CCCCC2)cc1)Nc1ccc2c(c1)OCO2	-1.4	-4.0	1.8	8.5	.	-16.6	-8.1	2.0	0.737
O=C(c1cccc(OC2CCN(Cc3ccc(F)cc3)CC2)c1)N1CCCC1	.	1.8	8.2	-6.8	i	3.3	6.8	1.0	0.691
O=C(NCC1CCCO1)/C(=C\c1ccccc1)NC(=O)c1ccccc1 (stereo unspecified)	.	2.3	1.7	1.9	i	-17.0	1.6	0.3	0.674
CC(=O)N1c2ccccc2S(=O)(=O)c2c1ccc1ccccc21	.	3.9	-2.2	0.7	i	-31.5	-48.4	-0.9	0.706
O=S(=O)(NCc1ccccn1)c1ccc(Br)s1	-24.4	-1.1	0.0	-0.5	.	.	.	.	0.709
CN(C)/C=N/c1nc2nccc(-c3cccnc3)n2n1	-0.7	-3.6	.	-10.2	.	15.8	7.8	0.7	.
COc1cccc(C2C(C#N)=C(N)N(N(C)C)C3=C2C(=O)CC(C)(C)C3)c1 (stereo unspecified)	-0.7	5.5	5.2	-5.1	i	12.6	0.8	1.4	0.671
CCOC(=O)C1CCN(S(=O)(=O)c2ccc(-c3cc(C(F)(F)F)n(C)n3)s2)CC1	4.1	-1.4	1.4	2.0	i	6.5	7.8	2.9	0.621
O=C1Cc2cc(S(=O)(=O)Nc3cccc(F)c3)ccc2N1	4.7	-0.1	3.9	-0.1	i	-5.0	-11.9	2.4	0.675
CS(=O)(=O)c1ccc2nc(NC(=O)c3ccccc3Br)sc2c1	-6.7	-2.3	1.7	-2.7	i	-15.2	-13.5	-0.3	0.602
O=C(O/N=C(/c1ccccc1)c1ccncc1)c1cccc(F)c1	-0.1	-1.9	.	-1.0	i	28.1	23.0	6.9	.
Cc1c(NC(=O)/C=C/c2ccc(S(=O)(=O)N3CCOCC3)cc2)c(=O)n(-c2ccccc2)n1C	-5.8	-4.3	1.6	-2.7	i	6.5	6.1	-2.5	0.659
Cc1c(C(c2ccc(Br)cc2)c2c(C)n(C)n(-c3ccccc3)c2=O)c(=O)n(-c2ccccc2)n1C	.	1.2	2.4	-8.2	i	-19.2	-14.8	0.8	0.633
Nc1c(N(Cc2ccccc2)C(=O)COc2ccc(F)cc2Cl)c(=O)[nH]c(=O)n1Cc1ccccc1	.	2.8	5.3	2.6	i	.	.	.	0.677
COC1CCCCC1Nc1cccc(SC)c1 (stereo unspecified)	98.9*	-0.3	0.2	1.9	.	.	.	.	0.695
O=C(O)c1sc2ncccc2c1OCc1ccccc1	-1.5	-0.1	-8.1	1.0	i	-0.6	1.4	-1.1	0.714
COc1ccc(NC(=O)CCOc2ccccc2C)cc1S(=O)(=O)N1CCCCC1	-36.0	0.7	3.1	3.1	i	-14.3	-20.6	5.6	0.658
O=C(CN1CCN(Cc2ccccc2Cl)C1=O)NC1CCCCCCC1	-2.8	1.5	-2.6	-2.2	.	.	.	.	0.744
C=CCn1c(O)c(N=O)c2ccccc21	.	-1.8	1.0	4.9	i	3.6	0.7	5.4	0.697

Whole records, quoted from the list. Screens in order: ALR inh | HNF4A DNA FP | UCH37 DUB inh | Beta2AR agonist | FGF22 binding | rRNA inh HTS | rRNA inh HTS OD600 | rRNA inh HTS RFP | E coli growth
`Cc1nc(N2CCCC2)c2nnn(Cc3ccccc3Cl)c2n1` across the screens: -1.7 | 6.7 | 3.9 | -14.1 | . | . | . | . | 0.72
`COc1ccccc1Nc1nc(N)nc(CN2CC(C)CC(C)C2)n1` (stereo unspecified) across the screens: -20.9 | -0.6 | 5.3 | -4.7 | i | 14.9 | 6.1 | 1.0 | 0.706
`Cc1cc(C)c(C(=O)CSc2n[nH]c(-c3ccncc3)n2)c(C)c1` across the screens: 16.9 | 0.9 | 5.7 | -5.0 | i | -52.9 | -55.5 | -4.1 | 0.657
`O=C(COC(=O)CCc1ccc(S(=O)(=O)N2CCCCC2)cc1)Nc1ccc2c(c1)OCO2` across the screens: -1.4 | -4.0 | 1.8 | 8.5 | . | -16.6 | -8.1 | 2.0 | 0.737
`CC(=O)N1c2ccccc2S(=O)(=O)c2c1ccc1ccccc21` across the screens: . | 3.9 | -2.2 | 0.7 | i | -31.5 | -48.4 | -0.9 | 0.706

Remaining list, next part.
SMILES	ALR inh	HNF4A DNA FP	UCH37 DUB inh	Beta2AR agonist	FGF22 binding	rRNA inh HTS	rRNA inh HTS OD600	rRNA inh HTS RFP	E coli growth
CC(C(c1ccc2c(c1)OCO2)c1c(N)n(C)c(=O)n(C)c1=O)[N+](=O)[O-] (stereo unspecified)	-5.2	1.5	5.3	-3.8	i	.	.	.	0.659
COC(=O)CC1COc2ccccc2N1C(=O)c1ccc(Br)cc1 (stereo unspecified)	.	-1.3	-0.6	3.1	i	-24.8*	-1.6*	-3.0*	0.691
C[n+]1c(-c2ccccc2)cc2c(=Cc3ccc([N+](=O)[O-])cc3)c3ccccc3n21	.	7.9	.	-18.2	i	-17.6	-50.0	45.7	.
CCN(CC(=O)Nc1ccc2c(c1)OCCO2)C(=O)/C=C/c1ccc(F)cc1	-29.6	4.7	-1.2	-11.8	i	.	.	.	0.652
CCCCCCCNC1=CC(=O)CC(c2ccccc2)C1 (stereo unspecified)	-14.6	0.6	0.6	-10.5	i	-31.4	-40.2	5.5	0.659
COCCN(CCOC)C(=O)Nc1ccc(Cl)cc1	35.6	0.1	4.2	-1.4	i	-17.1	2.6	-1.1	0.704
O=C(NC1CCCCCCC1)c1ccc(Br)cc1	1.3	-0.5	2.5	3.7	i	9.1	13.4	-0.3	0.625
O=C1c2ccccc2CN1C(CO)Cc1ccccc1 (stereo unspecified)	-1.9	1.0	4.4	-1.3	i	7.1	19.8	-0.9	0.671
COc1ccc(S(=O)(=O)N2CCCCC2c2cc(C(=O)Nc3ccc(F)c(Cl)c3)no2)cc1 (stereo unspecified)	.	2.9	.	.	i	-9.4	-12.7	-0.4	.
O=C(c1ccc(Br)o1)N1CCN(Cc2ccccc2Cl)CC1	12.1	2.2	1.8	-5.9	i	-13.3	-13.7	-0.6	0.709
CCOc1ccc(NC(=S)Nc2ccc(C)c([N+](=O)[O-])c2)cc1	-4.7	0.1	5.5	-1.5	.	.	.	.	0.665
O=C(O)c1cccc(N2C(=O)c3cc([N+](=O)[O-])cc4cc([N+](=O)[O-])cc(c34)C2=O)c1	.	-30.2	12.9	1.2	i	7.3	5.5	25.5	0.722
C#C[C@]1(O)CC[C@H]2[C@@H]3CCc4cc(OC)ccc4[C@H]3CC[C@@]21C	.	3.0	6.3	2.3	i	.	.	.	.
O=C(COC(=O)c1cc(S(=O)(=O)N2CCCCC2)ccc1N1CCOCC1)c1ccc(Cl)cc1	-22.6	1.6	-0.8	-4.3	i	1.7	-0.8	1.8	0.724

Only part of the results is shown; the hit share may differ from the screen's.
